High-throughput results deposited in PubChem by several laboratories.
CSC inhib = cancer stem cell viability inhibitors, primary screen, luminescence; cancer stem cell-like cells viability; inhibition, % at 7.5 µM; 300,000 compounds, 1.1% hits; AID 2717, 2010;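 active means mean at 75% or more and at least half the replicates too; inconclusive means mean and replicates disagree; tested in HMLE shEcad cells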;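 further: 0% = median of negative and 100% = median of positive control wells; the first replicate is given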
Env fusion inh = inhibitors of HIV-1 Env-driven cell-cell fusion, primary screen, HeLa-JRFL effector, CEM21 target cells, luciferase; inhibition, % at 12.3 µM; 360,000 compounds, 1.1% hits;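 active means mean replicate inhibition score of at least 50 and every replicate individually at or above 50; inconclusive means only one of the two criteria met; inactive means mean below 50 and not all replicates reaching 50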;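 further: 0% = plate neutral controls and 100% = maraviroc near 300 nM; one replicate is shown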
eIF4H inh = human eIF4H binding inhibitors, primary screen, translation initiation inhibitor project, biochemical, uHTS, fluorescence polarization; eIF4H fluorescence polarization binding assay; AID 2012, 2009; 290,000 compounds, 0.94% hits; inhibition, % at 35 µM;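 active means 50% or more with normal probe brightness, or confirmed in later tests; inconclusive means above 50% with abnormal brightness, or retests that disagree; inactive means below 50% or failed in later tests; about a fifth of its hits are not listed in these tables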;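 further: calls also rest on retests at 20 µM and on dose response follow-up; 0% = protein and probe with vehicle and 100% = probe without protein; strong numbers were not always called active; many hits fall short of the cut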
Rce1 inh = yeast Rce1p protease inhibitors, primary screen, biochemical, fluorescence, cell-free homogeneous; CAAX prenyl protease 2 (Saccharomyces cerevisiae (strain ATCC 204508 / S288c)), Q03530; yeast membranes, quenched prenylated peptide cleavage fluorescence; calls only; 290,000 compounds, 0.27% hits; AID 2563, 2010;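 active means fall in fluorescence gain of 50% or more versus controls, with final raw signal at or below 3038400; inconclusive means same 50% fall but final raw signal above 3038400; inactive means fall in fluorescence gain under 50%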;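 further: plate controls were neutral control wells for no effect and wells lacking membranes for full effect; tested at 10 µM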
Yeast UUG start = modulators of yeast start codon fidelity, primary screen, whole organism, S. cerevisiae, single point, plate reader | S. cerevisiae UUG-firefly luciferase reporter, luminescence/redox ratio | activity score, % at 18.7 µM | 350,000 compounds, 0.13% hits;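 active means replicate mean at a twofold rise or more, about +100% in these data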;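 further: firefly luciferase made from a UUG start codon reports start codon fidelity; reporter light over untreated wells divided by growth signal over untreated wells; some hits fall short of that in this replicate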
MT1-MMP act inh = blockers of MT1-MMP proenzyme processing, primary screen, HT1080 RFP-PRO-GFP cells, GFP/RFP fluorescence; GFP/RFP ratio fluorescence, overnight; percent of plate control window, DMSO zero; GFP/RFP ratio change, % at 20 µM; 360,000 compounds, 0.061% hits; AID 651647, 2012; Matrix metalloproteinase-14 (Homo sapiens), P50281;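 active means GFP/RFP ratio change of at least 30% with cell ATP level not reduced by more than half and red fluorescence within 50% of control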; further: strong numbers were not always called active
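Assay system: HT1080 RFP-PRO-GFP cells. Benchmarks: DMSO vehicle wells and RFP-L50D-GFP reporter cell wells. Times: overnight cell settling, then overnight compound exposure, 37 °C, 5% CO2. Compound: 20 µM single dose, 1% DMSO. Read-out basis: GFP/RFP fluorescence ratio.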
PABP FP inh = PABP poly(A) RNA binding inhibitors, primary screen, biochemical, fluorescence polarization, uHTS. 290,000 compounds, 1% hits. inhibition, % at 35 µM. Polyadenylate-binding protein 1 (Homo sapiens), P11940;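 active means 50% or more with normal probe brightness, or confirmed in later tests; inconclusive means above 50% with abnormal brightness, or retests that disagree; inactive means below 50% or failed in later tests; about a fifth of its hits are not listed in these tables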;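 further: calls also rest on retests at 20 µM and on dose response follow-up; controls were probe without protein and protein plus probe with vehicle; some compounds called inactive have numbers as strong as hits; many hits fall short of the cut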
Target sequence (P11940 whole entry, looked up): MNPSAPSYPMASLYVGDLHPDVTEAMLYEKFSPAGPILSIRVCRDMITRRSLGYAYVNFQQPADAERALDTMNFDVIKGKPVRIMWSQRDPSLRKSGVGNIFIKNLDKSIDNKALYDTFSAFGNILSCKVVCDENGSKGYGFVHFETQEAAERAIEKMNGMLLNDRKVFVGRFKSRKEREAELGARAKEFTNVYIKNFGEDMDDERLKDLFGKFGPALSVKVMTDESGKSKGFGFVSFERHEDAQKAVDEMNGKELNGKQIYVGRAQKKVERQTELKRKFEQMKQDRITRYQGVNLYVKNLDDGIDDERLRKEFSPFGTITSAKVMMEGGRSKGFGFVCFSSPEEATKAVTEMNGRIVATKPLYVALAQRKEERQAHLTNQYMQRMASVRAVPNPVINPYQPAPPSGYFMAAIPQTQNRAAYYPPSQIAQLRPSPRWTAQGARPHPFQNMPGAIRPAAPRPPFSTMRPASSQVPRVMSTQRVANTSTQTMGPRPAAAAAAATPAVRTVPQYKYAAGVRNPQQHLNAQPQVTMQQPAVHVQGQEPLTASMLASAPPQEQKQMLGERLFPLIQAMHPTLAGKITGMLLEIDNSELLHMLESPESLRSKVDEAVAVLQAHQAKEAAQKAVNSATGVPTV
eIF4H inh retest = also measured in eIF4H inh; calls as there; inhibition, %; compound at 20 µM; confirmation average;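 mean of two retest wells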
PABP FP inh retest = further read-out of PABP FP inh, marked with its call; inhibition, %; compound at 20 µM; confirmation repeats;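 mean of two retest wells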
MT1-MMP act inh RFP = further read-out of MT1-MMP act inh, marked with its call; RFP signal change, %; measured here: RFP expression control read;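 0 = vehicle wells; hits needed this value within 50% of zero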
Active calls of the source: *; i = inactive; ? = inconclusive; nt = not tested or not shown. The order is random; 2.9% or so of the library scored in one or more.

The opening 3 compounds as a preview:
SMILES	CSC inhib	Env fusion inh	eIF4H inh	Rce1 inh	Yeast UUG start	MT1-MMP act inh	MT1-MMP act inh RFP	PABP FP inh	others
COc1cccc(Oc2c(C)oc3c(CN4CCCCC4)c(O)ccc3c2=O)c1	-14	-1	2	i	2	-5	1	-1
CC1CCc2sc(C(=O)NC3CCN(Cc4ccccc4)CC3)cc2C1 (stereo not given)	29	7	nt	nt	-6	1	-3	nt
COCCNC(=O)c1cn(C)c2ccc(S(=O)(=O)N3CCCC3)cc2c1=O	-7	-2	9	i	-5	-3	4	-1

The list itself (from the top)
SMILES	CSC inhib	Env fusion inh	eIF4H inh	Rce1 inh	Yeast UUG start	MT1-MMP act inh	MT1-MMP act inh RFP	PABP FP inh	others
COc1cccc(Oc2c(C)oc3c(CN4CCCCC4)c(O)ccc3c2=O)c1	-14	-1	2	i	2	-5	1	-1
CC1CCc2sc(C(=O)NC3CCN(Cc4ccccc4)CC3)cc2C1 (stereo not given)	29	7	nt	nt	-6	1	-3	nt
COCCNC(=O)c1cn(C)c2ccc(S(=O)(=O)N3CCCC3)cc2c1=O	-7	-2	9	i	-5	-3	4	-1
O=[N+]([O-])c1ccc(-n2nnnc2CN2CCCCC2)cc1	nt	29	4	i	-6	0	2	5
COCCNC(=O)C1CCN(C(=O)c2cc3sccc3n2Cc2ccc(F)cc2)CC1	-13	36	-5	i	nt	2	-4	-4
CCOc1ccc2nc(N/C(N)=N/S(=O)(=O)c3ccc(C)cc3)nc(C)c2c1	nt	-30	nt	nt	-14	-5	-2	nt
CC(C)c1ccc(C=NNc2ccc([N+](=O)[O-])cn2)cc1	nt	-283	nt	nt	-21	-4	0	nt
CCNC(=S)NC(=NCc1cccnc1)Nc1nc(C)cc(C)n1	3	13	16	i	-18	-4	-3	19
Cc1cccc(-n2ncc3c2CCCC3NC(=O)CCc2ccncc2)c1C (stereo not given)	4	3	-8	i	-10	0	-21	-2
CCCC(=O)C1=C(O)C(C(=O)OC)C(C)(C)CC1=NCc1ccccc1 (stereo not given)	-3	3	-5	i	10	-1	1	8
Cc1ccc(CNCCCn2cnc3c(OCc4ccccc4)ncnc32)o1	nt	-9	nt	nt	-5	8	7	nt
N#CCc1ccnc2ccccc12	nt	-7	nt	nt	-17	-37	6	nt
CCC(C)[C@H](NS(=O)(=O)c1ccc(F)cc1Br)C(=O)OC (stereo not given in full)	nt	11	nt	nt	9	1	5	nt
CCN(CC(=O)NCc1cccs1)c1ccc(S(=O)(=O)N2CCOCC2)cn1	10	-164	-2	i	-1	-6	-1	9
CCCCN(Cc1cc2cc(OC)ccc2[nH]c1=O)C(=O)c1ccccn1	-1	nt	-11	i	-3	3	1	-3

2 entries picked at random from those above:
SMILES	CSC inhib	Env fusion inh	eIF4H inh	Rce1 inh	Yeast UUG start	MT1-MMP act inh	MT1-MMP act inh RFP	PABP FP inh	others
CCCCN(Cc1cc2cc(OC)ccc2[nH]c1=O)C(=O)c1ccccn1	-1	nt	-11	i	-3	3	1	-3
O=[N+]([O-])c1ccc(-n2nnnc2CN2CCCCC2)cc1	nt	29	4	i	-6	0	2	5

(next part)
SMILES	CSC inhib	Env fusion inh	eIF4H inh	Rce1 inh	Yeast UUG start	MT1-MMP act inh	MT1-MMP act inh RFP	PABP FP inh	others
O=[N+]([O-])c1cccc(CN2CCN(S(=O)(=O)Cc3ccccc3)CC2)c1	-18	-9	17	i	-11	2	-2	7
O=c1cc2oc3cc(O)c(O)cc3c(-c3ccccc3[N+](=O)[O-])c-2cc1O	95*	54	50*	i	-13	41*	-14*	34*	eIF4H inh retest=65*;PABP FP inh retest=63*
COc1cccc(OCC(=O)NC2CCCCC2)c1	-2	nt	0	i	nt	7	3	-15
NC(=O)c1ccc(NC(=O)COc2coc(CN3CCc4ccccc4C3)cc2=O)cc1	1	-21	nt	i	-8	3	-3	nt
Cn1cc(S(=O)(=O)N2CCN(c3ccc(F)cc3)CC2)c(=O)n(C)c1=O	-13	-2	-10	i	7	2	6	0
Cc1ccccc1CN(C)CCS(=O)(=O)c1cc(Cl)ccc1Cl	62	-15	-6	i	-19	-1	2	5
Cc1cc(C(=O)CN2C(=O)NC3(CCCc4ccccc43)C2=O)c(C)n1C (stereo not given)	2	nt	-4	nt	4	-3	-6	10
Fc1cccc(Cc2noc(CN3CCSCC3)n2)c1	0	-4	-6	i	nt	0	2	-7
COc1ccc(S(=O)(=O)N(n2c(C)nnc2-n2nc(C)cc2C)S(=O)(=O)c2ccc(OC)cc2)cc1	-11	nt	2	i	-21	-2	0	-4
CNC(=S)N/N=C/c1cc(Br)cc(Br)c1O	39	nt	14	i	nt	4	4	-15
CCc1[nH]c(=O)c(C#N)c2c1COC(C)(C)C2	-13	-12	-2	i	1	0	1	4
CCc1c(C)c(C#N)c2nc3ccccc3n2c1N1CCN(c2cc(C)ccn2)CC1	4	nt	4	i	nt	nt	nt	12
CCCn1c(SC(C(=O)Nc2cc(C)ccc2OC)c2ccccc2)nc2ccccc2c1=O (stereo not given)	23	nt	0	i	nt	-9	-4	1
CC(C)(C)c1ccc(CC(=O)N2CCC2(C)C(=O)NCc2cccc3ccccc23)cc1 (stereo not given)	nt	7	nt	nt	-8	-8	-2	nt
Cc1cccc[n+]1CC(=O)Nc1ccccc1	8	-21	2	i	-21	-2	2	-10
N#Cc1ccc(-c2ccc(C3Nc4ccccc4C(=O)N3O)o2)cc1 (stereo not given)	11	-20	nt	nt	2	-12	-4	nt
NS(=O)(=O)c1ccc(CNC(=O)COc2ccc3c4c(c(=O)oc3c2)CCCC4)cc1	-3	-4	-7	i	-7	-2	0	-4
Cc1[nH]c2ccc3ccccc3c2c(=O)c1C/C=C/Cl	-6	14	0	i	-11	2	-8	1
CCOC(=O)C1=C2N(C)c3ccccc3N2CCC1=O	-12	nt	1	nt	-5	4	4	6
CN1CCN(C(=O)N(c2ccccc2)c2ccccc2)CC1	-4	4	nt	i	-2	-1	0	nt
O=C(CN1C(=O)C2(OCCO2)c2cc(Br)ccc21)NO	13	1	nt	i	nt	-18	-11	nt
CCCC(c1nnnn1C1CCCCC1)N1CCN(C(=O)c2ccco2)CC1 (stereo not given)	2	8	6	i	0	2	6	9
CCOc1ccc(/C=C/C(=O)N(C)CC(=O)Nc2cccc(F)c2)cc1OCC	-5	?	nt	i	-12	2	-4	nt
CC(C)Cn1c(SCc2nnc(-c3cccs3)o2)nc(O)cc1=O	20	-69	-5	i	-5	-9	-6	0
CC(=O)Nc1ccc(N(C(=O)CNC(=O)c2cccs2)C(C(=O)NCC2CCCO2)c2ccccc2)cc1 (stereo not given)	4	-9	-20	i	10	0	2	3
CC(C)C[C@H](NC(=O)OC(C)(C)C)C(=O)N/N=C/c1ccc2nccnc2c1	-7	7	2	i	-3	-3	-3	-1
Cc1cccc(C)c1NC(=O)CN1CCN(C(=O)CNC(=O)c2ccc(N3CCCC3=O)cc2)CC1	-9	nt	nt	nt	-13	2	5	nt
C=CCNc1nc(C(=O)OCC(=O)NCc2ccccc2OC)cs1	6	-7	nt	i	-9	1	1	nt
COc1ccc(S(=O)(=O)N2CCOCC2)cc1NC(=O)CSc1nnc(N)s1	0	2	nt	i	-10	0	2	nt
COCCCNC(=O)/C(C#N)=C/c1c(N2CCN(c3ccccc3)CC2)nc2ccccn2c1=O	2	9	42	i	10	1	0	3
O=C(/C=C/c1ccco1)OCC(=O)c1ccc(OC(F)F)cc1	4	0	nt	nt	-7	2	1	nt
Cc1ccc(NC(=O)/C=C/c2ccco2)nc1	nt	-248	?	i	nt	16	-2	-6
Cc1cc(C)c2nc3sc(=Cc4ccc(-c5ccccc5C(=O)O)o4)c(=O)n3c2c1	nt	-33	nt	nt	2	-64	2	nt
O=C(CSc1nc2nc(-c3cccs3)cc(C(F)(F)F)c2c(=O)[nH]1)NCc1ccco1	1	nt	2	i	1	2	5	22
CCc1ccc(OCC(=O)NC2CCCCC2)c(Br)c1	18	nt	12	i	14	3	-6	-1
COc1ccc(CCC(=O)O)cc1OC	-11	-12	-5	i	nt	4	-2	-11
Cc1cc(C)n(-c2nc(NCCN(C)C)c3c4c(sc3n2)COC(C)(C)C4)n1	6	18	8	i	-13	2	0	-14
Cc1cc(-c2nnc(CCC(=O)NC(C)c3cccc4ccccc34)o2)no1 (stereo not given)	-6	-7	0	i	nt	-2	1	-3
COC1CCCN(C(=O)c2ccc3oc(Cc4ccc(Cl)cc4)nc3c2)C1 (stereo not given)	-3	13	-13	i	4	5	-1	1
COc1ccc(CCNC(=O)c2ccc(Cl)cc2)cc1	nt	-113	3	i	0	1	-3	2
Cc1cc(C(C)(C)C)nc2[nH]n(-c3ccccc3)c(=O)c12	-14	-6	-13	i	-1	-3	-6	-1
COc1ccc(CCC(=O)OCc2csc(CC(=O)Nc3ccc(C)cc3)n2)cc1OC	-22	10	nt	nt	-5	-2	4	nt
Cc1ccc(CNC(=O)CSc2nnc(CNC(=O)c3ccccc3)o2)cc1	0	2	-6	i	-25	1	5	1
Cc1cccc(C(C(=O)NC2CCCC2)N(Cc2cccnc2)C(=O)c2csnn2)c1 (stereo not given)	-20	2	-12	i	-24	-2	0	11
COc1ccc(S(=O)(=O)Cc2ccc(C(=O)N3CCN(c4ncccn4)CC3)o2)cc1	-6	-3	nt	nt	14	-2	5	nt
CC(C)(C)c1ccccc1N=Cc1ccc2ccccc2n1	8	nt	-2	i	5	-1	4	-6
COc1ccc(CCNC(=O)c2cc(C3CC3)nc3c2cnn3C(C)C)cc1	11	nt	nt	nt	7	2	-5	nt
O=C(CCCCn1c(=O)[nH]c2ccccc2c1=O)NCCC1=CCCCC1	-5	-41	-1	i	-14	-2	-2	-4
COc1c(S(=O)(=O)N2CCCC2)ccc(Cl)c1Cl	-20	nt	5	i	-16	3	1	-6
COc1ccccc1N1CCN(CCCCN2C(=O)C3CCCN3C2=O)CC1 (stereo not given)	nt	-9	nt	nt	-16	2	0	nt
Cc1cccc(OCc2nnc(SCC(=O)N3CCN(c4ccccc4)CC3)o2)c1C	2	40	2	i	-3	0	-3	-7

5 compounds out of the list, sorted by count of non-hydrogen atoms, low to high:
SMILES	CSC inhib	Env fusion inh	eIF4H inh	Rce1 inh	Yeast UUG start	MT1-MMP act inh	MT1-MMP act inh RFP	PABP FP inh	others
COc1c(S(=O)(=O)N2CCCC2)ccc(Cl)c1Cl	-20	nt	5	i	-16	3	1	-6
CC(C)(C)c1ccccc1N=Cc1ccc2ccccc2n1	8	nt	-2	i	5	-1	4	-6
O=C(CCCCn1c(=O)[nH]c2ccccc2c1=O)NCCC1=CCCCC1	-5	-41	-1	i	-14	-2	-2	-4
COc1ccc(CCNC(=O)c2cc(C3CC3)nc3c2cnn3C(C)C)cc1	11	nt	nt	nt	7	2	-5	nt
COc1ccc(S(=O)(=O)Cc2ccc(C(=O)N3CCN(c4ncccn4)CC3)o2)cc1	-6	-3	nt	nt	14	-2	5	nt
